Assay outcomes as filed in PubChem.
VDR inh = vitamin D3 receptor (human) inhibition; 400,000 tested, 0.93% active; Potency, µM, for inactives: max response, negative = inhibition, usual class: inhibitors; P11473; AID 504847; VDR-SRC2-3 peptide fluorescence polarization, 2 h; active = well fitted inhibition curve with a large enough effect; inconclusive = small, poorly fitted or top-dose-only effect, or another doubt; inactive = no such curve, though single readings can be large or run the other way; note: series mostly up to about 120 µM
Target sequence (P11473 whole entry, looked up): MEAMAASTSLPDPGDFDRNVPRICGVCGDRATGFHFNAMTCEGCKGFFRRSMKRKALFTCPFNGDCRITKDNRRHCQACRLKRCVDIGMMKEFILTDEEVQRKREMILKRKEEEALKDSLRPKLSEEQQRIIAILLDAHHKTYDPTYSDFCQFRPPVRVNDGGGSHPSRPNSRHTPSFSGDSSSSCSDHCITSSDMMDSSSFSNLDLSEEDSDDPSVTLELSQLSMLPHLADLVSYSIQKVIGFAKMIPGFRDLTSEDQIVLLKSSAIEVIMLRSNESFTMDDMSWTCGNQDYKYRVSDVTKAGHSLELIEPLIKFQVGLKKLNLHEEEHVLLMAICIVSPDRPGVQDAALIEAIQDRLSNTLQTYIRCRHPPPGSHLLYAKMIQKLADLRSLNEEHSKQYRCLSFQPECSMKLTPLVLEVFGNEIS
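Inhibition of the VDR/SRC2-3 peptide interaction is quantified by fluorescence polarization. Compounds (23 nl, pintool) incubate with the reagents for 2 hours at ambient room temperature.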
The depositor's hits bear a star; ? = inconclusive. % is set by controls: 0 for no effect and ±100 for the full control effect; potency is the fitted concentration of half-maximal effect. This is a subset, so the mix of outcomes need not match the whole.

The opening 5 records as a preview:
SMILES	VDR inh
CCCCC(CC)CNC(=O)c1ccc(Cn2c(=O)[nH]c3cc(OC)c(OC)cc3c2=O)cc1 (stereo not drawn)	-14.4%
COC(=O)c1sc(N)c(C(=O)OC)c1CSc1nnnn1C	7.1%
Cc1nnc(N2CCC(C(=O)NCc3ccc(F)cc3)CC2)c2nn(-c3ccc(Cl)cc3)c(C)c12	8.5%
Cc1cccc(OCCn2nc(C(=O)O)c3ccccc3c2=O)c1	19.0%
CCCCC1=NN(C(=O)c2ccncc2)C(O)(C(F)(F)F)C1 (stereo not drawn)	-2.8%

This part in full, previewed entries included:
SMILES	VDR inh
CCCCC(CC)CNC(=O)c1ccc(Cn2c(=O)[nH]c3cc(OC)c(OC)cc3c2=O)cc1 (stereo not drawn)	-14.4%
COC(=O)c1sc(N)c(C(=O)OC)c1CSc1nnnn1C	7.1%
Cc1nnc(N2CCC(C(=O)NCc3ccc(F)cc3)CC2)c2nn(-c3ccc(Cl)cc3)c(C)c12	8.5%
Cc1cccc(OCCn2nc(C(=O)O)c3ccccc3c2=O)c1	19.0%
CCCCC1=NN(C(=O)c2ccncc2)C(O)(C(F)(F)F)C1 (stereo not drawn)	-2.8%
C#CCOCCOCCOCCNc1nc(N2CCN(C(=O)[C@H]([C@@H](C)CC)n3cc([C@@H](N)Cc4ccc(O)cc4)nn3)CC2)nc(N2CCN(C(=O)[C@H](Cc3cc4ccccc4[nH]3)n3cc([C@@H](N)CC(C)C)nn3)CC2)n1	-6.7%
Cc1cc2oc(C(=O)Nc3ccc(S(=O)(=O)Nc4onc(C)c4C)cc3)cc(=O)c2cc1Cl	-10.4%
CC(Sc1nnc(N)s1)C(=O)Nc1nccs1 (stereo not drawn)	-6.1%
OC(Cc1ccncc1)c1ccccc1Cl (stereo not drawn)	-4.7%
COc1cc(/C=N/NC(=O)c2cc(O)cc(O)c2)ccc1OC(=O)c1ccccc1	-8.5%
O=C(COC(=O)c1cccs1)Nc1nnc(-c2ccccc2)o1	5.4%
C=CCn1c(=S)[nH]c2cc(C(=O)Nc3ccc(OC)c(OC)c3)ccc2c1=O	7.6%
COc1ccc(NC(=O)C(c2ccccc2)N2CCN(c3ccccn3)CC2)cc1Cl (stereo not drawn)	9.0%
C=C1CCN([C@@H](CC(C)C)C(=O)NCc2ccc(OC)cc2)S(=O)(=O)c2ccccc21	-5.7%
O=C1CCCN1CCCn1cnc2c([nH]c3ccc(F)cc32)c1=O	5.4%
COCCOC(=O)c1c(C)nc(SCC(=O)Nc2cccc3ccccc23)c(C#N)c1-c1ccco1	-5.9%
NC(=S)NNC(=O)Nc1ccc(Cl)c(Cl)c1	?
Cc1ccc(-n2c(C)cc(C3=NNC(=NC4CC4)SC3)c2C)cc1C	-25.9%
CCn1ccc(=N)cc1	-2.7%
O=C(C[N+]1(CC#Cc2ccccc2)CCOCC1)c1ccc(Cl)cc1	7.2%
CCOC(=O)c1nn(-c2ccccc2)c(=O)cc1OCC(=O)Nc1cc(C)ccc1C	-19.1%
O=C(COc1ccccc1)Nc1sc2c(c1C(=O)Nc1ccccc1)CCCCC2	-9.0%
CCc1cc2c(=O)n(-c3ccccc3)cnc2s1	-6.7%
COc1cccc(C2c3c(-c4ccccc4)n[nH]c3C(=O)N2c2ccc(C(=O)O)cc2)c1 (stereo not drawn)	-4.7%
Cc1ccc(S(=O)(=O)NCC(=O)N2CCc3ccccc3C2)cc1	13.6%
CCOC(=O)c1c(N2C(=O)C3C4C=CC(O4)C3C2=O)sc2c1CCCC2 (stereo not drawn)	-16.4%
CC(C)n1cnnc1SCC(=O)NC(=O)c1ccccc1	-3.2%
Fc1ccc(COc2ccc(Br)cc2CNCc2ccncc2)cc1	3.0%
Cc1ccnc(NC(=O)c2ccc(COc3c(F)c(F)cc(F)c3F)o2)c1	-24.5%
CN(C)c1cccc2c1c(NC(=O)c1ccc(Cl)cc1)nn2C	-3.7%
COc1ccc(CN(C)Cc2cc(=O)n3ccsc3n2)c(OC)c1OC	2.5%
CCOc1ccc(NC(=O)CSc2ccc3ccccc3n2)cc1	0.6%
NC(=O)C1CCN(C(=O)Cc2ccc(-c3ccccc3)cc2)CC1	?
CN(C)N1C(N)=C(C#N)C(c2ccccc2Cl)C2=C1CCCC2=O (stereo not drawn)	-8.6%
CCOc1cc(/C=C2/NC(=O)N(CC(=O)Nc3cccc(C)c3)C2=O)ccc1OCC(N)=O	-12.3%
Cc1cc(C)n2nc(SCC(=O)N3CCC(C(=O)O)CC3)nc2n1	0.4%
Cc1ccc2c(c1)N(CC(=O)N1CCCc3ccccc31)C(=O)CO2	-0.9%
Cc1cccc(CN2CCCC(C(=O)c3ccc4c5c(cccc35)CC4)C2)n1 (stereo not drawn)	0.0%
CC(NCc1ccccc1O)C12CC3CC(CC(C3)C1)C2 (stereo not drawn)	0.1%
CCCCNC(=O)C1CCN(S(=O)(=O)c2cc(Br)cc3c2N(C(=O)CC)CC3)CC1	-3.8%
CCOC(=O)C1CCN(C(=O)Nc2ccc(Cl)cc2)CC1	6.7%
COC(=O)[C@@H](NC(=O)O[C@H]1C(=O)c2ccc(OC)cc2O[C@@H]1c1ccc2c(c1)OCO2)C(C)C	-0.5%
COc1cccc(C2c3[nH]c4ccccc4c3C[C@H]3C(=O)N(CCCOC(C)C)CC(=O)N23)c1 (stereo partly drawn)	-1.1%
O=C(NCCN1CCN(Cc2ccccc2)CC1)C1c2ccccc2C(=O)N2CCc3ccccc3C12 (stereo not drawn)	-3.2%
O=C(Cc1ccccc1F)Nc1cc(S(=O)(=O)N2CCOCC2)ccc1N1CCCC1	18.1%
O=C1C2CCCN2C(=O)N1CCCCN1CCN(c2ccccc2)CC1 (stereo not drawn)	-8.9%
CC(=O)C1=C(O)C(=O)N(CCCO)C1c1ccccc1 (stereo not drawn)	-1.0%
COc1ccc(CCN2C(=NC(C)=O)SC3CS(=O)(=O)CC32)cc1OC (stereo not drawn)	-1.2%

The list goes on; it opens with the two that closed the last part.
SMILES	VDR inh
CC(=O)C1=C(O)C(=O)N(CCCO)C1c1ccccc1 (stereo not drawn)	-1.0%
COc1ccc(CCN2C(=NC(C)=O)SC3CS(=O)(=O)CC32)cc1OC (stereo not drawn)	-1.2%
CC1=C([N+](=O)[O-])C(c2cccc(Br)c2)C2=C(N1)c1ccccc1C2=O (stereo not drawn)	-16.0%
COc1ccccc1NC(=O)c1c(C)nn(-c2ccccc2)c1Cl	-16.5%
O=C(NCC1CCCO1)c1cccc(Oc2ccccc2)c1 (stereo not drawn)	-3.7%
COc1ccc2c(C)c(C)c(=O)oc2c1OC	16.2%
O=C(OCC#CCSc1nnc(-c2ccncc2)o1)c1sc2ccccc2c1Cl	-11.7%
O=C(O)c1ccc(-c2nc(-c3ccc(Cl)c(Cl)c3)cs2)cc1	-1.3%
COc1cc(CNC(=O)c2cc(C(=O)NCc3cc(OC)cc(OC)c3)n(C)n2)cc(OC)c1	-5.8%
Clc1nc(NCCN2CCOCC2)nc(NCc2ccccc2)n1	-4.4%
Cc1nnc(NC(=O)Cc2cccs2)s1	20.1%
O=C(NCC1CCCO1)c1cccc2ccccc12 (stereo not drawn)	21.9%
COc1ccc(Nc2nc(N3CCCCC3)c3ccccc3n2)cc1	13.4%
CCCOc1ccc(C(=O)Nc2ccccc2[N+](=O)[O-])cc1	-5.1%
CCCCCC(C)n1[nH]c(=O)cc1N (stereo not drawn)	3.9%
CSc1cccc(NC(=O)COc2cccc3ccccc23)c1	3.2%
CCN(CC(=O)Nc1ccc(OC)cc1)C(=O)c1ccc2[nH]c3c(c2c1)CC(C)CC3 (stereo not drawn)	-6.5%
O=C(/C=C/c1ccccc1)CC(=O)c1ccccc1O	-6.5%
CN(CC(=O)N1CCN(c2ccccc2F)CC1)S(=O)(=O)c1cnc[nH]1	5.0%
COc1cc2c(cc1OC)C(C(=O)NCc1cccnc1)C(c1cccnc1)N(C)C2=O (stereo not drawn)	2.4%
CCOC(=O)[C@H]1[C@H]2COc3ccc(C)cc3[C@@H]2N2C(=O)CN(Cc3ccc(F)cc3)C(=O)[C@@]12C	-8.3%
O=C(NNS(=O)(=O)c1ccccc1[N+](=O)[O-])c1ccncc1	-1.9%
Cn1c(CNC(=O)CNC(=O)c2ccccc2)cc(=O)n(C)c1=O	7.5%
Cc1ccc(C)c(SCC(=O)Nc2cc(S(=O)(=O)N3CCOCC3)ccc2C)c1	-13.5%
O=C(NNc1cccc(Cl)n1)Nc1ccc(F)cc1	-5.0%
COc1ccc(C)cc1NC(=O)C(CCSC)NS(=O)(=O)c1ccc2c(c1)oc(=O)n2C (stereo not drawn)	7.1%
Cc1ccc2c(C)c(C(=O)N(Cc3ccc(Cl)cc3)C3CCS(=O)(=O)C3)oc2c1 (stereo not drawn)	3.2%
O=C(NCCCN1CCCCC1)c1ccc(CS(=O)c2ccc(Cl)cc2)o1 (stereo not drawn)	-20.4%
CCOC(=O)c1cc([N+](=O)[O-])sc1NC(=O)c1ccc(S(=O)(=O)N2CC3(C)CC2CC(C)(C)C3)cc1 (stereo not drawn)	4.4%
COc1ccc(NC(=O)/C(C#N)=C\c2cc(C)n(-c3ccc(Oc4ccc([N+](=O)[O-])cn4)cc3)c2C)cc1	-10.2%
CCn1c(SCC(=O)OC(C)C)nnc1-c1ccccc1	-5.0%
N#Cc1ccc(NC(=O)Cn2cnc([N+](=O)[O-])c2)cc1	-6.3%
Cc1ccc(/C=C/C(=O)OCC(=O)N(CC(C)C)c2c(N)n(Cc3ccccc3)c(=O)[nH]c2=O)o1	-13.2%
Cc1nc(CN2CCCC2=NC#N)n(-c2ccccc2)n1	21.0%
O=C(CC(NC(=O)c1ccccc1)c1ccccc1)Nc1ccc(F)c(F)c1 (stereo not drawn)	16.8%
Cc1ccc(C(=O)N/C(=C\c2ccc(-c3ccc(Br)cc3)o2)C(=O)NCCCN(C)C)cc1	7.9%
CC1=C(C(=O)OCc2ccccc2)C(c2ccccc2Cl)NC(=O)N1CCCCCC(=O)O (stereo not drawn)	-29.6%
COc1cccc(CN(CC(=O)NCc2ccccc2)C(=O)c2csnn2)c1	1.7%
COc1ccc(-n2c(=O)cnc3cnc(N(C)C)nc32)cc1	1.2%
CCc1c(C)nc(N)n2c(SCC(=O)Nc3ccccc3)nnc12	-0.5%
Cc1cc(C)n(-c2nc(C(F)(F)F)nc3ccccc23)n1	17.1%
COc1cc(OC)cc(-c2c(-c3ccc(F)cc3)c3cc(Br)ccc3n2C)c1	-9.9%
Cc1cccc(OCCCC(=O)Nc2ccc(S(=O)(=O)Nc3onc(C)c3C)cc2)c1	-1.1%
CCN1C(=O)CSC1=Nc1ccc(C(=O)O)cc1	5.2%
Cc1cc(NC(=O)CCSc2ccc(Cl)cc2)no1	1.1%
Cc1cccc(/C(N)=N/OC(=O)Cc2cccs2)c1	-16.1%
CCCCNC(=O)Nc1ccccc1C(=O)NCc1ccco1	-5.9%
COc1ccc(S(=O)(=O)NCc2ccco2)cc1N(C)S(=O)(=O)c1ccccc1	-2.5%
O=C(NNC(=O)C1CCN(Cc2cccc(F)c2)CC1)c1cccs1	1.7%
CC(C)c1ccccc1NC(=O)COC(=O)COc1ccccc1[N+](=O)[O-]	-14.1%
NC(=O)c1ccccc1OCC(=O)O	-17.7%
Cc1ccsc1C(=O)N1CCN(S(=O)(=O)c2cccc(F)c2)CC1	-5.5%
COC(=O)C1=C(C)N(Cc2ccccc2)C(=NCCCOC(C)C)N[C@H]1c1ccccc1	-5.1%
CCOC(=O)c1cc2sc(C)cc2n1CC(=O)N1CCN(C(=O)c2ccco2)CC1	4.9%
COc1ccc(Cl)cc1N(C(=O)Nc1cccc(Cl)c1)C1=NCC(C)S1 (stereo not drawn)	-11.9%
Cc1ccc(S(=O)(=O)N(C)c2ccc(OCC(=O)Nc3nc4ccccc4s3)cc2)cc1	-13.1%
CC(NC(=O)c1ccccc1F)c1nnc(SCC(=O)NC2=NCCS2)n1C (stereo not drawn)	-19.2%
O=C(NCc1ccccc1)c1cc(-c2ccncc2)nc2ccccc12	-5.5%
CCOc1ccc(NC(=O)Cn2cc(C(C)=O)c3ccccc32)cc1	-11.3%
S=c1[nH]nc(-c2n[nH]c3c2CCC3)n1/N=C/C=C/c1ccco1	-17.9%
Cc1ccccc1C(=O)Nc1nnc(S(=O)(=O)N2CCCc3ccccc32)s1	2.4%
COCCOC(=O)C1=C(C)NC2=C(C(=O)CCC2)C1c1cc2c(cc1Br)OCO2 (stereo not drawn)	-1.8%
The listing continues.
SMILES	VDR inh
O=C(Nc1cccnc1)c1ccccc1O	1.8%
O=C1NC2(CCCCC2)C(=O)N1CC(=O)N1CCc2ccccc21	9.6%
COc1ccccc1CN1CCN(C2CCN(C(=O)NC(C)C)CC2)C(=O)C1=O	19.0%
COc1ccc(CNC(=O)C(C)N=C2NS(=O)(=O)c3ccccc32)cc1OC (stereo not drawn)	12.2%
CC(=O)N1c2ccc(S(=O)(=O)N3CCC(C(=O)N4CCN(c5cccc(C(F)(F)F)c5)CC4)CC3)cc2CC1C (stereo not drawn)	22.7%
Cc1ccc(-c2csc3nc[nH]c(=S)c23)cc1	-22.3%
COc1ccc(S(=O)(=O)Nc2cc(C)ccc2OC)cc1C	-4.8%
CC(C)c1ccc(/C=C2\SC(=S)N(CC(=O)NCCCN3CCOCC3)C2=O)cc1	-3.3%
Cn1c(Oc2ccc3c(c2)OCO3)nc2c1c(=O)n(Cc1ccccc1)c(=O)n2C	-8.8%

As a working copy, 7 of the compounds above:
SMILES	VDR inh
O=C(Nc1cccnc1)c1ccccc1O	1.8%
O=C1NC2(CCCCC2)C(=O)N1CC(=O)N1CCc2ccccc21	9.6%
COc1ccccc1CN1CCN(C2CCN(C(=O)NC(C)C)CC2)C(=O)C1=O	19.0%
COc1ccc(CNC(=O)C(C)N=C2NS(=O)(=O)c3ccccc32)cc1OC (stereo not drawn)	12.2%
CC(=O)N1c2ccc(S(=O)(=O)N3CCC(C(=O)N4CCN(c5cccc(C(F)(F)F)c5)CC4)CC3)cc2CC1C (stereo not drawn)	22.7%
Cc1ccc(-c2csc3nc[nH]c(=S)c23)cc1	-22.3%
COc1ccc(S(=O)(=O)Nc2cc(C)ccc2OC)cc1C	-4.8%
